# YopH PTP inh – inhibitors of Yersinia enterocolitica YopH tyrosine phosphatase; fluorescence Ex485/Em525; inhibition, %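 (about 10 µM by stock and volumes)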; 140,000 compounds, 0.16% hits; AID 898;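 active means inhibition of 50% or more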;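 further: controls were vehicle for no effect and minimum signal wells for full effect; inactives centre near -20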
# Arbovirus anti – arbovirus infection inhibition; arbovirus infection cell-based antiviral screen; inhibition, % at 10 µM; 200,000 compounds, 0.37% hits; AID 1251;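 active means inhibition from about 30%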;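 further: bluetongue infection of BSR cells; cell survival read as ATP light after 72 h; 0% = infected wells without compound and 100% = uninfected wells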
# Mtb betalactam – beta-lactam sensitization of Mtb H37Rv; M. tuberculosis H37Rv growth with meropenem, percent inhibition; hits of this screen are not shown here; inhibition, % at 25 µM; 330,000 compounds, 0.27% hits; AID 434955;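 active means about 74% or more and at least 40 points above the plate without the antibiotic, then above 30% in a dose series; inconclusive means first-round hits that could not be retested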;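 further: growth measured after seven days incubation then overnight dye step; 0% = bacteria only wells and 100% = bacteria with antibiotic; twin plates without the antibiotic show which effects depend on it; some results filed as inactive read as strong as hits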
# Mtb H37Rv – M. tuberculosis H37Rv growth inhibitors, H37Rv strain (AID 1626) | inhibition, % at 10 µM; hits with a dose series show IC50 in µM | 220,000 compounds, 0.95% hits | M. tuberculosis H37Rv growth inhibition; higher % means a stronger effect;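 active means confirmed in a dose series; inconclusive means inhibition above 80% but not taken into the dose series; inactive means below 80% or under 30% at every dose of the series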;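 further: bacteria incubated seven days before Alamar blue readout; 0% = bacteria only wells and 100% = bacteria with antibiotic wells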
# RecA intein inh – inhibitors of M. tuberculosis RecA intein splicing. AID 2221. cell-free RecA intein splicing, fluorescence. 290,000 compounds, 0.75% hits. inhibition, %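 (about 9 µM by stock and volumes)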. P9WHJ3; in the data active means inhibition above about 30%; inconclusive means no clear call, values can overlap the other calls;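 further: 0% = vehicle wells and 100% = reference inhibitor control wells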
# Target sequence (P9WHJ3 whole entry, looked up): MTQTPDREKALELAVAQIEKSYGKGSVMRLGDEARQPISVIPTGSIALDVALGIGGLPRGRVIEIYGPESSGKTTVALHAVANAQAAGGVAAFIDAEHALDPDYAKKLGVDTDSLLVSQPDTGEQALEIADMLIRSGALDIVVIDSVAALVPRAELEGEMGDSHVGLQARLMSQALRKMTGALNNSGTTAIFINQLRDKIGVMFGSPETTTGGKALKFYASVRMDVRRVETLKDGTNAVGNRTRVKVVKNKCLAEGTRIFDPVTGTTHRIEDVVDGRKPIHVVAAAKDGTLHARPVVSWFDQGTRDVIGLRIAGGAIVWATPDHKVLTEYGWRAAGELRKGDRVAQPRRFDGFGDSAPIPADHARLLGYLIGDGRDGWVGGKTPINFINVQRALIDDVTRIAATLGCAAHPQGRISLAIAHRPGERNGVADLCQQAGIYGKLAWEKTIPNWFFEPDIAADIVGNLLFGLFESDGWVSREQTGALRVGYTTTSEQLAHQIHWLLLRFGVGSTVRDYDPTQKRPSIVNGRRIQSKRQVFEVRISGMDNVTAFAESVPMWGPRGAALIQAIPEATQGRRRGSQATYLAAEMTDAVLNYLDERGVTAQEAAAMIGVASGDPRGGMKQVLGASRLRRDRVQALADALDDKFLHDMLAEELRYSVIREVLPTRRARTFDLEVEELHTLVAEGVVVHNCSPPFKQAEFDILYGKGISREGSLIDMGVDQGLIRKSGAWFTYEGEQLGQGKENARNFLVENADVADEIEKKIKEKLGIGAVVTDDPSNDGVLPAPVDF
# Arbovirus anti repeat – second read-out of Arbovirus anti, no call of its own (marks repeat the call); inhibition, %; measured here: 10K subset replicate screen; many hits read low in the repeat;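 first of two repeat runs on a subset; 0% = infected and 100% = uninfected wells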
# Active calls of the source: *; ? = inconclusive; · = no result given.
SMILES,YopH PTP inh,Arbovirus anti,Mtb betalactam,Mtb H37Rv,RecA intein inh,others
COC(=O)C1=C(C)N(C)C(C)=C(C(=O)OC)C1c1ccc(F)c(Br)c1,-36.6,2.4,-4.4,-0.7%,-2.0,
S=C(NCc1cccnc1)Nc1cc(Cl)cc(Cl)c1,·,·,-6.0,-3.2%,·,
CCOC(=O)N1CCN(C(=O)CN(c2cccc(OC)c2)S(C)(=O)=O)CC1,-11.5,5.8,-18.7,-8.8%,-2.1,
O=C(CCSCCc1ccccn1)Nc1ccccn1,-32.7,1.9,-4.5,-1.1%,-1.2,
COc1ccc(S(=O)(=O)N2CCCCCC2)cc1C(=O)N(C)Cc1cccs1,·,·,-18.9,·,0.5,
Cc1ccnc2ccc(-c3nc4ccccc4o3)cc12,-38.7,-6.6,17.2,4.5%,·,
Cc1occc1C(=O)N/N=C/c1ccccn1,·,-0.4,21.6,4.2%,3.6,
CCCN(CCC)C(=O)c1ccccc1C(=O)N(CCC)CCC,-23.5,1.5,-4.0,-4.4%,-1.9,
O=C1OCc2ccc(NC(=O)c3c(F)cccc3Cl)cc21,·,·,-5.0,·,0.2,
COC(=O)c1cc(NC(=O)c2ccccc2F)cc(C(=O)OC)c1,·,12.0,4.1,5.0%,-0.4,
CCOC(=O)c1ccc(NC(=O)Nc2ccc3c4c(cccc24)C(=O)N3CC)cc1,-27.1,-5.1,-1.7,-0.5%,-1.4,
c1ccc2c(c1)OCC(CNc1ncnc3sccc13)O2 (stereo not drawn),-22.9,11.7,2.3,2.0%,-0.2,
COc1ccc2[nH]c(=O)c(-c3nnn(-c4ccc(Cl)c(Cl)c4)n3)cc2c1,·,·,-3.1,-14.4%,-12.3,
CC(C)(C)OC(=O)CNC(=O)c1nc[nH]c1C(=O)N1CCc2ccccc2C1,·,·,-2.3,·,1.0,
N#Cc1c(NC(=O)c2ccc([N+](=O)[O-])o2)sc2c1CCC2,·,·,100.2,·,8.1,
O=C(Nc1ccc(F)cc1)c1oc2ccccc2c1NC(=O)C1CCCC1,-45.6,-0.6,-2.9,-7.8%,1.3,
Cc1ccc(N2CCN(CC(O)COc3ccc([N+](=O)[O-])cc3)CC2)cc1 (stereo not drawn),·,9.3,-2.0,5.8%,-0.3,
O=C(NNC(=O)c1ccccc1-n1cccc1)c1ccccc1,-34.5,1.6,33.0,2.7%,1.5,
COc1ccc(NC2=C(Cl)C(=O)N(CCc3ccccc3)C2=O)cc1,-25.0,5.5,1.8,14.6%,-2.1,
CCCC(=O)Nc1ccc2oc(-c3ccc(OC)c(Br)c3)nc2c1,-25.8,3.5,13.0,4.4%,·,
Cc1ccc2nc3c(cc(C(=O)NCCN4CCOCC4)c(=N)n3CCCN3CCOCC3)c(=O)n2c1,·,·,-4.6,·,-104.5,
COc1ccc(Cl)cc1NC(=O)c1[nH]c(C)c(C(C)=O)c1C,·,·,0.8,·,-3.2,
CCSc1ncc(/C=N/Nc2ccc(F)cc2)n1C,-27.2,-36.8,6.0,?,3.7,
N#CCOC(=O)C1CCN(S(=O)(=O)c2ccc3c(c2)OCCO3)CC1,·,·,0.6,·,-0.5,
CN(C)S(=O)(=O)c1cccc(C(=O)OCC(=O)N2c3ccccc3NC(=O)C2(C)C)c1,-20.7,1.3,-4.6,0.1%,-2.9,
# (cont.)
SMILES,YopH PTP inh,Arbovirus anti,Mtb betalactam,Mtb H37Rv,RecA intein inh,others
Cc1nc2oc3ccc(F)cc3c(=O)c2cc1C(=O)O,·,·,-9.3,·,-0.5,
O=C(O)CC1CCC(=C(Cl)Cl)C1 (stereo not drawn),-32.5,0.9,3.4,3.1%,·,
Cc1ccc(NC(=O)c2sc3nc4c(c(-c5ccco5)c3c2N)CCC4)cc1,-5.2,-0.4,65.2,8.5%,-5.3,
O=C(N/N=C\c1ccc(CN(Cc2ccc(Cl)cc2)S(=O)(=O)c2ccccc2)o1)C(=O)Nc1ccc(F)cc1,-17.9,-11.2,76.9,·,-9.9,
Cc1cc2cc(C)c(NCCNC(=O)c3ccccc3)nc2cc1C,·,2.9,58.0,9.2%,3.6,
CC1(C)CC(=O)N(CC(=O)NCc2ccccc2)c2ccccc2S1(=O)=O,-34.2,-2.3,2.5,-10.7%,-0.1,Arbovirus anti repeat=10.4
CCOC(=O)NC(=O)CSc1nc(-c2ccc(C)c(C)c2)cn1-c1ccccc1,-6.8,10.0,15.8,12.8%,-2.7,
C=CCSc1nc(Cc2ccc(Cl)cc2)nc2ccccc12,-38.3,-3.5,2.0,-1.0%,0.8,
Cc1cccc(CCNC(=O)C2CCC(=O)N(Cc3ccc(Cl)cc3)C2)n1 (stereo not drawn),·,·,-22.6,·,-2.5,
COC(=O)C(Cc1ccccc1)NS(=O)(=O)c1ccccc1Br (stereo not drawn),·,·,0.7,-10.8%,3.5,
CCCCOc1ccc(Cc2c(O)nc(SC)[nH]c2=O)cc1,·,·,-5.7,·,-0.1,
Cc1ccccc1N1CC(C(=O)N2CCCCCC2)CC1=O (stereo not drawn),·,·,-9.5,·,-0.1,
CCOc1ccc(CN2C(=O)c3ccccc3Sc3ccc(C(=O)NCCCN4CCOCC4)cc32)cc1,·,·,22.4,·,-7.7,
CCCNc1nc(Nc2ccc(C)c(Cl)c2)c2cnn(C)c2n1,·,·,33.3,·,-2.0,
O=C(COc1ccc2c(-c3ccccc3)cc(=O)oc2c1)NCC1CCC(C(=O)O)CC1 (stereo not drawn),·,·,-2.3,·,9.0,
CC(=O)c1cc(NC(=O)c2ccc(C)cc2)c(=O)oc1C,·,-2.8,2.3,-1.1%,-1.7,
Nc1nc(-c2ccc(C(=O)O)cc2)cs1,·,6.4,5.2,7.4%,3.4,
CC(=O)N/C(=C\c1ccccc1)C(=O)OCC(=O)N1CCCCCC1,-11.0,11.2,2.9,-7.1%,-2.7,
Cn1cncc1COC(=O)c1ccc(Cl)cc1,·,·,-0.4,·,10.4,
COC(=O)/C=C1\NC(=O)C(C)S1 (stereo not drawn),·,3.5,3.8,-0.7%,0.4,
O=S(=O)(/N=C(/Nc1cccc2ccccc12)c1ccccc1)c1ccccc1,·,·,-1.9,·,5.5,
O=[N+]([O-])c1cc(Cl)c2cccnc2c1O,·,-14.2,30.0,3.3%,0.8,
CC1CCN(C(=S)NC2CC3CCC2C3)CC1 (stereo not drawn),-26.6,-0.2,-2.8,3.2%,0.6,
CCOC(=O)C1CCC(CN(Cc2ccccc2)S(=O)(=O)c2ccc([N+](=O)[O-])cc2)CC1 (stereo not drawn),2.3,-7.6,2.3,1.2%,0.4,
COc1ncnc(-c2ccccc2)c1-c1ccccc1,·,·,0.8,·,7.4,

# Molecules above that have an NH in an aromatic ring, in the order listed:
SMILES,YopH PTP inh,Arbovirus anti,Mtb betalactam,Mtb H37Rv,RecA intein inh,others
COc1ccc2[nH]c(=O)c(-c3nnn(-c4ccc(Cl)c(Cl)c4)n3)cc2c1,·,·,-3.1,-14.4%,-12.3,
CC(C)(C)OC(=O)CNC(=O)c1nc[nH]c1C(=O)N1CCc2ccccc2C1,·,·,-2.3,·,1.0,
COc1ccc(Cl)cc1NC(=O)c1[nH]c(C)c(C(C)=O)c1C,·,·,0.8,·,-3.2,
CCCCOc1ccc(Cc2c(O)nc(SC)[nH]c2=O)cc1,·,·,-5.7,·,-0.1,

# Next section
SMILES,YopH PTP inh,Arbovirus anti,Mtb betalactam,Mtb H37Rv,RecA intein inh,others
CCOc1cc(C(=S)N2CCOCC2)ccc1OS(=O)(=O)c1ccc(OC)cc1,·,·,-1.2,·,-0.6,
O=C(CSc1nnc(C2CC2)n1-c1ccccc1)NCCc1ccccc1,-30.8,12.9,-3.3,-3.8%,-2.0,
CC(=O)c1ccc(OCCCN2CCCCC2)cc1,2.3,-2.3,0.3,-7.2%,-0.3,
N#CC(=C1CCCC1)c1nc(-c2ccc(Cl)cc2)cs1,-0.2,0.2,-1.2,0.8%,3.4,
COc1ccc(CCNC(=O)C2CCN(S(C)(=O)=O)CC2)cc1OC,-25.5,4.7,5.4,-11.2%,0.8,
COc1ccc(NS(=O)(=O)c2cc(NC(=O)c3ccc(=O)[nH]c3)ccc2N2CCOCC2)cc1,·,-3.2,-1.6,-11.3%,-0.5,
COC(=O)c1oc2ccc(Br)cc2c1NC(=O)CN1CCN(C)CC1,-47.8,·,47.9,-5.9%,-2.5,
COc1ccc(OCCCC(=O)OC(C)C(=O)Nc2ccccc2[N+](=O)[O-])cc1 (stereo not drawn),·,·,17.3,·,-1.9,
O=C1c2ccccc2C(=O)N1CCSc1nncs1,-33.6,5.5,9.6,-8.1%,-0.3,
CCN(CC)c1ccc(N=Nc2ncn[nH]2)cc1,·,-6.2,-6.4,3.6%,6.3,
Cc1nc2c(-c3ccccc3)c(C)nn2c(C)c1CC(=O)O,6.1,4.3,-4.7,-6.3%,-3.3,
COc1ccc(S(=O)(=O)N2CCCCC2)cc1NC(=O)Cc1sc(C)nc1-c1ccc(F)cc1,·,·,-7.7,·,0.9,
COc1ccc(CCC(=O)NCCc2cn3c(C)csc3n2)cc1,-5.2,3.0,-3.0,7.7%,-2.2,
Cc1cc(CC(C)C)n(-c2nc3ccccc3c(=O)n2OCC(N)=O)n1,-32.6,-16.9,93.7,?,2.1,
O=C(NCC(c1ccco1)N1CCN(c2ccccc2)CC1)c1ccc2c(c1)OCO2 (stereo not drawn),·,-10.0,-2.9,3.9%,1.8,
COCn1c(-c2cccc(Br)c2)nc2ccccc21,-55.0,1.0,59.9,3.4%,1.4,Arbovirus anti repeat=7.4
COC(=O)c1ccc(OCCN2C3=NCCN3c3ccccc32)cc1,-47.0,-13.0,-8.3,-12.1%,-0.1,
CCOC(=O)NC1(C(F)(F)F)C(=O)N(Cc2ccccc2)C2=C1C(=O)CC(C)(C)C2 (stereo not drawn),3.3,4.2,2.3,-0.8%,-0.2,
Cc1cc(CNC(=O)c2cccc(OC3CCN(S(=O)(=O)N(C)C)CC3)c2)on1,·,·,-7.7,·,0.5,
CCc1ccc(Nc2n[n+](-c3ccccc3)c(-c3ccc(C(=O)O)cc3)s2)cc1,·,·,3.3,·,2.1,
COc1ccc2[nH]c(=O)c(C(c3nnnn3C3CCCC3)N3CCN(Cc4ccc5c(c4)OCO5)CC3)cc2c1 (stereo not drawn),-18.6,0.1,49.2,3.7%,0.1,
Cc1ccc(C)c(-c2nnc(NC(=O)c3ccco3)o2)c1,·,·,90.0,·,3.4,
Nc1c(Cl)ncnc1N1CCN(c2ncnc(Cl)c2N)CC1,-33.1,5.3,-3.9,-2.5%,·,
CCOC(=O)CSc1ncnc2c1cnn2-c1ccc(C)cc1C,·,16.2,99.5,1.44µM*,4.0,
Cc1c(Br)c([N+](=O)[O-])nn1CC(=O)NCc1ccccn1,-6.1,1.9,-6.4,-4.1%,-3.5,
# Remaining list, next part
SMILES,YopH PTP inh,Arbovirus anti,Mtb betalactam,Mtb H37Rv,RecA intein inh,others
Cc1nc2ccc(N)cc2c(=O)n1Cc1ccc(Cl)cc1,-28.7,0.3,2.4,-0.1%,0.9,
O=C(N/N=C\c1ccc(-c2ccccc2[N+](=O)[O-])o1)C1COc2cc3ccccc3cc2O1 (stereo not drawn),-4.9,-22.0,-2.9,7.2%,12.7,
Cc1ccc(C)c(S(=O)(=O)Nc2ccc(C(=O)NCCCN3CCOCC3)cc2)c1,·,·,1.1,·,-2.0,
Cc1ccc(C(=O)OCC(=O)NC(=O)c2cccn2C)cc1[N+](=O)[O-],·,·,-3.1,·,-0.7,
CCOC(=O)Nc1ccccc1N1C(=O)c2ccccc2C1=O,-16.4,1.2,?,-6.9%,0.0,
Cn1cc(Br)c(C(=O)NN2C(=O)C3C(C2=O)C2C=CC3C23CC3)n1 (stereo not drawn),·,0.7,2.8,5.9%,0.3,
COc1ccc(CCNC(=O)C2CCN(S(=O)(=O)c3ccc(F)cc3)CC2)cc1,·,·,0.8,·,0.0,

# An excerpt from above in order of count of non-hydrogen atoms, rising:
SMILES,YopH PTP inh,Arbovirus anti,Mtb betalactam,Mtb H37Rv,RecA intein inh,others
Cc1ccc(C(=O)OCC(=O)NC(=O)c2cccn2C)cc1[N+](=O)[O-],·,·,-3.1,·,-0.7,
Cc1ccc(C)c(S(=O)(=O)Nc2ccc(C(=O)NCCCN3CCOCC3)cc2)c1,·,·,1.1,·,-2.0,
O=C(N/N=C\c1ccc(-c2ccccc2[N+](=O)[O-])o1)C1COc2cc3ccccc3cc2O1 (stereo not drawn),-4.9,-22.0,-2.9,7.2%,12.7,

# Bioassay records as filed in PubChem.

# A portion of the library; count on the stated rates, not on these rows.
